# Vaccinia inh: blocks a specific stage of Vaccinia orthopoxvirus infection; 0.01% of 89,000 active; Vaccinia-infected cells, mCherry/Venus stage reporter fluorescence; hits give low values; some inactives read as strong as hits; activity change (mCherry), % (concentration not given with the values);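 active means mCherry past -33% and 40 or more points under the early reporter, replicates agreeing; inconclusive means past -33% without that gap or agreement; tested in A549 cells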;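 further: scaled between vehicle wells and reference inhibitor wells; 23 nL library stock went into each well; one replicate is shown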
# Vaccinia inh Venus: also measured in Vaccinia inh; calls as there; activity change (Venus), %; measured here: Venus reporter, other viral stage;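 negative = less Venus signal; first of two replicates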
# * marks the source's active call; other numbers are inactive results; ? = inconclusive; / = not tested or not shown. An excerpt. The share of hits here may be higher or lower than overall.
SMILES,Vaccinia inh,Vaccinia inh Venus
O=S(=O)(c1cccs1)N1CCCCN2[C@@H](CO)[C@H](c3ccc(C4=CCCC4)cc3)[C@@H]2C1,11,-10
O=C(c1ccccc1)N1CC[C@@H]2[C@@H](CO)Nc3ccc(-c4ccccc4F)cc3[C@@H]21,-1,-9
C[C@@H]1CN([C@@H](C)CO)C(=O)c2cccc(NC(=O)NC3CCCCC3)c2O[C@H]1CN(C)CC1CC1,-15,-12
CO[C@@H]1CN(C)C(=O)c2ccc(NS(C)(=O)=O)cc2OC[C@@H](C)NC[C@H]1C,16,3
CC(C)NC(=O)N1[C@H](C#N)[C@@H](c2ccc(-c3ccc(F)cc3)cc2)[C@@H]1CO,?,/
Cc1cccc(S(=O)(=O)N2CCCCN3[C@@H](CO)[C@H](c4ccc(-c5cccnc5)cc4)[C@@H]3C2)c1,0,-8
CC(C)NC(=O)Nc1ccc2c(c1)CC(=O)N([C@H](C)CO)C[C@@H](C)[C@@H](CN(C)Cc1ccc(Oc3ccccc3)cc1)O2,?,/
O=C(CCN1CCCCC1)NCC[C@@H]1CC[C@H](NC(=O)C2CC2)[C@@H](CO)O1,0,-1
C[C@@H]1CCCCO[C@H](CN(C)C(=O)Cc2ccccc2)[C@H](C)CN([C@H](C)CO)C(=O)c2cc(NS(=O)(=O)c3ccc(Cl)cc3)ccc2O1,?,/
C[C@H](CO)N1C[C@H](C)[C@H](CN(C)Cc2ccc(C(F)(F)F)cc2)OCCCC[C@H](C)Oc2ccc(NS(=O)(=O)c3ccc(Cl)cc3)cc2C1=O,?,/
O=C(NC1CCCC1)N1CC(=O)N2[C@H](CO)[C@H](c3ccc(/C=C/c4ccccc4)cc3)[C@@H]2C1,0,-17
COc1cccc(-c2ccc3c(c2)O[C@@H](CN(C)C)[C@@H](C)CN([C@H](C)CO)S3(=O)=O)c1,-2,6

# Single entries from the results shown.
# `Cc1cccc(S(=O)(=O)N2CCCCN3[C@@H](CO)[C@H](c4ccc(-c5cccnc5)cc4)[C@@H]3C2)c1` | Vaccinia inh = 0
# `O=C(NC1CCCC1)N1CC(=O)N2[C@H](CO)[C@H](c3ccc(/C=C/c4ccccc4)cc3)[C@@H]2C1` | Vaccinia inh = 0
# `O=C(c1ccccc1)N1CC[C@@H]2[C@@H](CO)Nc3ccc(-c4ccccc4F)cc3[C@@H]21` | Vaccinia inh Venus = -9

# Next records
SMILES,Vaccinia inh,Vaccinia inh Venus
O=C(C[C@@H]1C[C@@H]2c3cc(NC(=O)NC4CCCCC4)ccc3O[C@@H]2[C@@H](CO)O1)NCc1cccnc1,15,11
COc1ccc2c3c(n(C)c2c1)[C@@H](CO)N(CC1CC1)CC31CCN(C(=O)CN2CCOCC2)CC1,-4,-2
C[C@@H]1CN([C@@H](C)CO)C(=O)Cc2cc(NS(=O)(=O)c3ccccc3)ccc2O[C@@H]1CN(C)C(=O)Nc1ccccc1,9,12
O=C(CN1CCOCC1)NCC[C@@H]1CC[C@@H](NS(=O)(=O)c2ccc(F)cc2)[C@@H](CO)O1,-3,5
Cc1noc(C)c1C(=O)N(C)C[C@@H]1OCc2ccccc2-c2c(n(C)c3ccccc23)C(=O)N([C@@H](C)CO)C[C@@H]1C,-14,-17
O=C(C[C@@H]1C=C[C@@H](NC(=O)c2ccccc2)[C@H](CO)O1)NCc1ccncn1,1,17
O=C(Cc1ccccn1)N[C@@H]1CC[C@H](CCNC(=O)c2cc(Cl)cc(Cl)c2)O[C@@H]1CO,15,9
COc1ccc(NC(=O)N(C)C[C@H]2Oc3ccc(NS(C)(=O)=O)cc3CC(=O)N([C@@H](C)CO)C[C@@H]2C)cc1,-8,-7
C[C@@H]1CCCCO[C@H](CN(C)S(=O)(=O)c2ccc(F)cc2)[C@H](C)CN([C@@H](C)CO)C(=O)c2cc(NC(=O)C3CCCCC3)ccc2O1,-35,-16
C[C@H]1CN([C@@H](C)CO)C(=O)c2cc(NC(=O)Nc3ccc4c(c3)OCO4)ccc2O[C@H]1CN(C)S(=O)(=O)c1ccc(F)cc1,0,-1
C[C@H](O)C#Cc1ccc2c(c1)O[C@@H](CN(C)C)[C@H](C)CN([C@H](C)CO)S2(=O)=O,35,4
C[C@H](CO)N1C[C@H](C)[C@H](CN(C)C(=O)c2ccccn2)Oc2ncc(-c3ccc(F)cc3)cc2C1=O,3,0
Cc1ccc(S(=O)(=O)N[C@@H]2CC[C@H](CCn3cc(-c4ccccc4F)nn3)O[C@@H]2CO)cc1,-13,-5
COc1ccc(C#Cc2ccc3c(c2)[C@@H]2[C@@H](CCN2S(=O)(=O)c2cccc(OC)c2)[C@@H](CO)N3C)cc1,10,-2
C[C@@H]1CCCCO[C@@H](CN(C)S(C)(=O)=O)[C@H](C)CN([C@@H](C)CO)C(=O)c2cc(NS(=O)(=O)c3ccc(Cl)cc3)ccc2O1,0,-7
O=C(NCc1nc2ccccc2[nH]1)C1=C[C@H](C2CCCCC2)C[C@H](OCCCCO)O1,-4,-4
COc1ccccc1-c1ccc2c(c1)O[C@@H](CN(C)C(=O)c1ccncc1)[C@@H](C)CN([C@H](C)CO)S2(=O)=O,11,4
O=C(Cc1ccccn1)NCC[C@H]1CC[C@@H](NC(=O)Nc2ccc(Cl)cc2)[C@@H](CO)O1,5,0
O=C(C[C@@H]1C=C[C@@H](NC(=O)c2ccc3c(c2)OCO3)[C@H](CO)O1)NCc1ccc(Cl)cc1,1,5
COCCOC(=O)N1C(=O)[C@@]2(c3ccccc31)[C@H](c1ccccc1OCCO)N1[C@H](c3ccccc3)[C@H](c3ccccc3)OC(=O)[C@H]1[C@@H]2C(=O)NC[C@H](O)c1ccccc1,?,/
C[C@@H]1CN([C@@H](C)CO)C(=O)c2cc(NS(=O)(=O)c3cccs3)ccc2O[C@@H](C)CCCCO[C@@H]1CN(C)C(=O)Nc1cccc2ccccc12,-1,11
C[C@@H]1CN([C@@H](C)CO)C(=O)c2cc(NC(=O)CCC(F)(F)F)ccc2O[C@@H](C)CCCCO[C@@H]1CN(C)C(=O)Nc1ccc2c(c1)OCO2,4,4
C[C@@H]1CN([C@H](C)CO)C(=O)c2cccc(NS(=O)(=O)c3ccc(Cl)cc3)c2O[C@H]1CN(C)Cc1ccccc1,-2,2
C[C@@H]1CCCCO[C@H](CN(C)C(=O)Nc2ccc(C(F)(F)F)cc2)[C@@H](C)CN([C@@H](C)CO)C(=O)c2cc(NC(=O)Nc3ccccc3)ccc2O1,-13,-7
COc1ccc(NC(=O)N(C)C[C@@H]2OCCCC[C@@H](C)Oc3ccc(NC(=O)c4ccccc4)cc3C(=O)N([C@H](C)CO)C[C@@H]2C)cc1,16,6
CC(=O)Nc1ccc2c(c1)C(=O)N(C)[C@H]1CC[C@H](CC(=O)NCC3CC3)O[C@H]1CO2,2,7
CC=Cc1ccc2n(c1=O)C[C@H]1[C@H](CO)[C@@H](C(=O)NCCC)[C@@H]2N1C(=O)C1CCC1 (mixture of isomers),12,4
O=C(Nc1ccc(Cl)cc1)N[C@@H]1CC[C@H](CCNC(=O)c2ccccc2F)O[C@@H]1CO,3,1
CN(C)C(=O)c1ccc(-c2ccc([C@H]3[C@H](C#N)N(C(=O)C4CC4)[C@H]3CO)cc2)cc1,-2,4
C[C@H]1CN([C@@H](C)CO)S(=O)(=O)c2ccc(C#Cc3ccccc3F)cc2O[C@H]1CN(C)C(=O)c1ccc2c(c1)OCO2,?,/
COc1ccc(S(=O)(=O)N(C)C[C@H]2Oc3ccc(NC(=O)C4CCCCC4)cc3C(=O)N([C@@H](C)CO)C[C@H]2C)cc1,-7,-1
CC(C)NC(=O)N(C)C[C@@H]1Oc2ccc(NC(=O)CCCN(C)C)cc2CC(=O)N([C@H](C)CO)C[C@@H]1C,15,22
COc1ccc2c3c([nH]c2c1)[C@H](CO)N(C(=O)Nc1ccccc1F)CC31CN(C(C)=O)C1,12,-3
Cc1noc(C)c1NC(=O)N(C)C[C@@H]1Oc2ccc(N(C)C)cc2CC(=O)N([C@@H](C)CO)C[C@H]1C,10,9
Cc1noc(C)c1NC(=O)Nc1ccc2c(c1)C(=O)N([C@H](C)CO)C[C@H](C)[C@@H](CN(C)S(=O)(=O)c1c(C)noc1C)OCCCC[C@@H](C)O2,10,5
CNC[C@H]1Oc2ccc(NC(=O)C3CCCCC3)cc2CC(=O)N([C@H](C)CO)C[C@H]1C,-12,-9
COCC#Cc1cnc2c(c1)C(=O)N([C@@H](C)CO)C[C@@H](C)[C@@H](CN(C)Cc1ccccc1)O2,9,9
C[C@H](CO)N1C[C@H](C)[C@@H](CN(C)S(=O)(=O)c2cccs2)Oc2c(NS(=O)(=O)c3ccc(Cl)cc3)cccc2C1=O,3,-5
CCc1cnc(N2[C@H](C#N)[C@H](c3ccc(C#CC(C)C)cc3)[C@@H]2CO)s1,-13,-14
CCNC(=O)C[C@H]1CC[C@H]2[C@H](COc3ccc(NS(=O)(=O)c4ccccc4C)cc3C(=O)N2C)O1,6,3
C[C@H](CO)N1C[C@H](C)[C@@H](CN(C)C(=O)Nc2ccc(C(F)(F)F)cc2)Oc2ccc(NC(=O)Cc3cn(C)c4ccccc34)cc2CC1=O,-15,1
C[C@@H]1CN([C@H](C)CO)C(=O)c2cc(NC(=O)c3ccncc3)ccc2O[C@@H]1CN(C)S(=O)(=O)c1ccccc1,6,10
CN(C)CC#Cc1ccc([C@H]2[C@@H](CO)N3CCCCN(CC4CCOCC4)C[C@H]23)cc1,9,0
C[C@@H]1CN([C@H](C)CO)C(=O)c2cc(NC(=O)Nc3ccc4c(c3)OCO4)ccc2O[C@@H]1CN(C)Cc1ccccc1,-33,-25
COc1cccc(S(=O)(=O)Nc2ccc3c(c2)[C@H]2C[C@H](CC(=O)NCCc4ccccc4)O[C@@H](CO)[C@H]2O3)c1,-14,-1
C[C@@H]1CCCCO[C@@H](CN(C)CC2CCCCC2)[C@@H](C)CN([C@H](C)CO)C(=O)c2cc(NC(=O)c3ccccc3)ccc2O1,?,/
COc1ccccc1CNC(=O)C[C@@H]1C[C@H]2c3cc(NC(=O)C4CCC4)ccc3O[C@H]2[C@H](CO)O1,3,1
Cn1cnc(S(=O)(=O)N2C[C@@H](O)COC[C@H]3O[C@H](CC(=O)NC4CCCC4)CC[C@@H]32)c1,7,5

# A run of entries from further up, as a working copy:
SMILES,Vaccinia inh,Vaccinia inh Venus
O=S(=O)(c1cccs1)N1CCCCN2[C@@H](CO)[C@H](c3ccc(C4=CCCC4)cc3)[C@@H]2C1,11,-10
O=C(c1ccccc1)N1CC[C@@H]2[C@@H](CO)Nc3ccc(-c4ccccc4F)cc3[C@@H]21,-1,-9

# Remaining list, next part.
SMILES,Vaccinia inh,Vaccinia inh Venus
C[C@@H]1CCCCO[C@H](CN(C)C(=O)Nc2ccc(C(F)(F)F)cc2)[C@@H](C)CN([C@@H](C)CO)C(=O)c2cc(NS(=O)(=O)c3ccc(F)cc3)ccc2O1,-17,-9
O=C(C[C@H]1C[C@H]2c3cc(NC(=O)c4cccnc4)ccc3O[C@H]2[C@@H](CO)O1)NCC(F)(F)F,-8,0
C[C@@H]1CN([C@H](C)CO)C(=O)Cc2cc(NC(=O)Nc3ccccc3)ccc2O[C@@H]1CN(C)C(=O)NC1CCCCC1,11,12
O=C(C[C@H]1C[C@@H]2c3cc(NC(=O)C4CCC4)ccc3O[C@@H]2[C@H](CO)O1)NCc1cccc(F)c1,-5,0
CNC[C@@H]1Oc2c(NS(=O)(=O)c3c(C)noc3C)cccc2C(=O)N([C@H](C)CO)C[C@H]1C,14,7
CCC(=O)N1[C@H](CO)[C@H](c2ccc(C3=CCCCC3)cc2)[C@H]1CNC1CCCC1,-9,-3
COc1ccc(CN2C[C@@H](C)[C@H](OC)CN(C)C(=O)c3ccc(NC(=O)c4nc5ccccc5s4)cc3OC[C@H]2C)cc1,-17,-18
O=C(C[C@@H]1C=C[C@@H](NS(=O)(=O)c2ccc(F)cc2)[C@@H](CO)O1)NCc1ccccc1F,21,16
O=C(C[C@H]1CC[C@@H]2[C@H](COC[C@@H](O)CN2Cc2cccc(F)c2)O1)NCc1ccncc1,-5,-10
C[C@@H]1CN([C@H](C)CO)C(=O)Cc2cc(NS(=O)(=O)c3cccs3)ccc2O[C@@H]1CN(C)S(=O)(=O)c1ccccc1,17,18
CCCC(=O)Nc1ccc2c(c1)C(=O)N(C)C[C@H](OC)[C@H](C)CN(CCc1ccccc1)[C@H](C)CO2,-4,-8
Cc1ccccc1-c1ccc2c(c1)O[C@H](CN(C)C(=O)Nc1ccc(C(F)(F)F)cc1)[C@@H](C)CN([C@@H](C)CO)S2(=O)=O,?,/
COc1ccc(S(=O)(=O)N(C)C[C@@H]2OCCCC[C@H](C)Oc3ccc(NS(=O)(=O)c4ccc(C)cc4)cc3C(=O)N([C@H](C)CO)C[C@@H]2C)cc1,-32,-23
C[C@@H]1CN([C@H](C)CO)C(=O)c2cc(C3=CCCCC3)cnc2O[C@H]1CN(C)C(=O)NC1CCCC1,-9,-11

# Entries of single compounds, looked up by structure. Screens in order: Vaccinia inh	Vaccinia inh Venus
# Entry for `C[C@@H]1CN([C@H](C)CO)C(=O)c2cc(C3=CCCCC3)cnc2O[C@H]1CN(C)C(=O)NC1CCCC1` → -9	-11
# Entry for `O=C(C[C@H]1CC[C@@H]2[C@H](COC[C@@H](O)CN2Cc2cccc(F)c2)O1)NCc1ccncc1` → -5	-10
# Entry for `CCCC(=O)Nc1ccc2c(c1)C(=O)N(C)C[C@H](OC)[C@H](C)CN(CCc1ccccc1)[C@H](C)CO2` → -4	-8
